HCMV NEC inh: disrupts HCMV UL50-UL53 complex binding. inhibition, % (concentration not given with the values). 0.15% of 190,000 active. HTRF UL50-UL53 interaction, normalized percent inhibition. AID 1918969;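 active = both replicates at 50% or more, plus weaker picks with an unusually low signal ratio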;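 also: stock transfer was 100 nL into about 20 µL; 0% = negative control wells and 100% = wells with untagged competitor protein; inactives centre near -12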
Sa growth 42C: S. aureus growth inhibition; S. aureus RN4220 growth, OD600, 20 h, 42 °C; stronger effect = lower value; relative growth, % (concentration not given with the values); 0.53% of 170,000 active; AID 720641;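 active = growth at 42 °C up to 50% and 20 or more points under that at 30 °C, or under 10% at both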;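 also: 300 nL library stock went into each well; scaled to the means of positive and negative controls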
GIV-Gai inh: GIV-Galpha-i interaction inhibition. P08753. Galpha-i3/FITC-GIV peptide fluorescence polarization, 90 min; stronger effect = lower value; scaled: aluminum fluoride 0%, vehicle 100%. percent of control (FP), % (test concentration not listed). 0.42% of 210,000 active. AID 1224905;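 active = replicate mean at 85% of control or lower, very high polarization wells dropped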;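 also: wells of about 15 µL received 100 nL stock; the first replicate is given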
Target sequence (P08753 whole entry, looked up): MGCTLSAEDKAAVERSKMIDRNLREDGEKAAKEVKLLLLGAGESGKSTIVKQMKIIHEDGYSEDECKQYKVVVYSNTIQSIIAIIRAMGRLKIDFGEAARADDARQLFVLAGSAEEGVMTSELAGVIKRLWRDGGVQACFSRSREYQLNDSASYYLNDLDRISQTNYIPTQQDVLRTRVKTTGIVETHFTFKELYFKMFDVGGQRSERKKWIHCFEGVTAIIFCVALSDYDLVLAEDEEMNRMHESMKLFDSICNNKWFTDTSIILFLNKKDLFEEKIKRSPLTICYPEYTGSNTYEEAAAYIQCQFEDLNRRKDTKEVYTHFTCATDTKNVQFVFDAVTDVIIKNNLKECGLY
Sa growth 42C second temp: further read-out of Sa growth 42C, marked with its call; relative growth, %; measured here: growth at 30 °C;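 optical density after 20 h as mean of two plates; 100% = untreated growth and lower means inhibition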
The depositor's hits bear a star; · = not tested or not shown; & = joins results of further samples.

SMILES	HCMV NEC inh	Sa growth 42C	Sa growth 42C second temp	GIV-Gai inh
CCOC(=O)c1cc(C(=O)OC)c(C)nc1N1CCCN(Cc2ccc(F)cc2)CC1	-6	87	92	105
COc1ccc(CC(=O)N2CCc3cc(OC)c(OC)cc3C2COc2ccc(OC)cc2)cc1 (stereo not given)	·	116	92	105
CN1CCN(C(c2cccc(Br)c2)c2sc3nc(-c4ccco4)nn3c2O)CC1 (stereo not given)	·	135	92	98
COc1ccc(CC(=O)Nc2ccc(-c3cnco3)cc2)cc1OC	-39	89	83	103
O=S(=O)(CC(O)c1ccc(Cl)c(Cl)c1)c1ccc(Br)cc1 (stereo not given)	-21	·	·	104
COc1ccc(N2C(=O)C(CC(=O)Nc3ccc(Cl)cc3)N(Cc3ccc4c(c3)OCO4)C2=O)cc1 (stereo not given)	-31	104	88	101
COc1ccc(N(C(=O)COc2ccc(Br)cc2)S(=O)(=O)c2ccc(C)cc2)cc1	-26	100	92	98
Cn1c(C(=O)N/N=C/c2cccs2)cnc1SCc1ccc(Cl)cc1	-33	103	85	105
CCN(CC)CCCNC(=O)c1cn(C)c2ccc(S(=O)(=O)N(C)C3CCCCC3)cc2c1=O	4	97	100	110
CCOc1ccc(C(=O)NC2CCN(C(=O)NCc3ccccc3)CC2)cc1	-24	88	79	99
COc1ccc(S(=O)(=O)N(CC(=O)Nc2ccc3c(c2)OCCO3)c2ccccc2)cc1OC	-15	107	75	101
O=C(O)CCC(=O)N1N=C(c2ccc([N+](=O)[O-])cc2)CC1c1ccccc1Cl (stereo not given)	-111	·	·	94
C=CCn1c(C2CCCO2)nc2ccccc21 (stereo not given)	0	·	·	102
Cc1nc(Nc2ccc(NC(=O)C(C)(C)C)cc2)cc(N2CCOCC2)n1	-36	·	·	102
CC1(C)CC(=O)C2=C(C1)Nc1ccccc1S2	-52	106	114	78*
O=C1N/C(=N\S(=O)(=O)c2ccccc2)S/C1=C/c1ccco1	·	75	48	121
O=C1c2ccccc2C(O)(c2ncc[nH]2)N1CCc1ccccc1 (stereo not given)	·	101	75	104
NS(=O)(=O)c1ccc2nc(NC(=O)COc3ccccc3)sc2c1	·	84	83	99
O=C(O)c1ccc(NC(=O)c2ccc3c(c2)C(=O)N(Cc2ccco2)C3=O)cc1	-49	115	98	96
CCN(Cc1ccncc1)C(=O)c1cccc(C(F)(F)F)c1	-35	108	99	98
O=C(O)CN1C(=O)/C(=C\c2cccc(OC(=O)c3ccccc3)c2)SC1=S	-67	·	·	103
CCOC(=O)C1CCN(c2nc3ccccc3n3c(=O)n(CC(=O)N4CCCCC4)nc23)CC1	-32	·	·	101
N#Cc1ccccc1CS(=O)(=O)c1nc2ncccc2[nH]1	-1	98	91	·
Cc1nn(CCCC(=O)N2CCCCC2)c(=O)c2cc3sccc3n12	-7	100	86	103
Cc1cccc(C)c1OCCCN1CCCCC1	2	133	83	103
CC(=O)Nc1ccccc1NC(=O)c1ccccc1	-4	92	81	101
CCCn1c(NC(=O)CCCc2nc3ccccc3c(=O)[nH]2)nc2ccccc21	-21	77	95	·
CC1=CS/C(=C(/C#N)c2nnc(N3CCOCC3)n2-c2ccccc2)N1c1ccc(OC(F)F)cc1	-31	86	88	·
CCC1CCCCN1C(=O)CNc1ccc(C)cc1Cl (stereo not given)	3	115	102	·
CC(Oc1ccc(Cl)cc1Cl)/C(N)=N/O (stereo not given)	-12	92	103	109
COc1cc2nc(NCCCN3CCCCC3C)n3nc(-c4cccnc4)nc3c2cc1OC (stereo not given)	0	100	80	106
CCc1ccccc1NC(=O)C(C(C)C)N1C(=O)c2ccccc2C1=O (stereo not given)	-5	113	94	·
Cc1ccc(Nc2nc3nonc3nc2Nc2ccc(O)cc2)cc1C	-4	·	·	100
O=C(C[n+]1cccc(/C=N/O)c1)NC12CC3CC(CC(C3)C1)C2	·	104	83	101
Cc1ccc(C(=O)Cn2nc3n(CC(C)C)c(=O)c4ccccc4n3c2=O)c(C)c1	-10	·	·	97
COc1ccc(CCC(C)N2CCN(c3cc(C)ccc3C)CC2)cc1 (stereo not given)	-9	102	84	105
CCc1ccc(S(=O)(=O)Nc2c(C)nc3nc[nH]n3c2=O)cc1	-12	88	90	102
Cc1ccc(S(=O)(=O)N(CC(O)Cn2c3ccccc3c3ccccc32)c2cccc(C(N)=O)c2)cc1 (stereo not given)	-20	105	73	104
CCC(=O)N1c2ccccc2NC2=C(C(=O)CC(c3ccccc3F)C2)C1c1ccc(C)cc1 (stereo not given)	33	·	·	105
O=C(/C=C/C(=O)N1c2ccccc2Sc2ccccc21)c1ccccc1	-7	97	70	·
COc1ccc(OC)c(NC(=O)CSc2nc3c(c(=O)n2Cc2ccccc2)SC(C)C3)c1 (stereo not given)	-24	99	93	105
CN1C(=O)c2ccccc2C(C(=O)N2CCCCCC2)C1c1c[nH]c2ccccc12 (stereo not given)	-28	90	90	108
Cc1cc(-c2csc(-c3ccccc3)n2)c(C)n1-c1nccs1	-41	89	80	·
Cc1cc(O)ccc1Sc1ccc(O)cc1C	-7	30*	74*	·
COC(=O)c1ccccc1S(=O)(=O)C(C)(C)C	-2	123	89	·
O=C(Nc1c(C(=O)Nc2ccccc2F)oc2ccccc12)c1cc2ccccc2o1	25	109	93	110
CCc1ccc(NC(=O)CC2C(=O)N(c3ccc(Cl)cc3)C(=O)N2C2CCCC2)cc1 (stereo not given)	·	111	109	110
CC(C(=O)c1ccc(Cl)cc1Cl)n1cncn1 (stereo not given)	3	99	93	108
N=C1/C(=C\c2ccc(-c3ccc(Br)cc3)o2)C(=O)N=C2SC(N3CCOCC3)=NN12	-10	94	54	103
CC(=O)Nc1nc2nc(C)cc(=O)n2[nH]1	-10	89	83	96
O=C(CSC1=NCCS1)c1cc(Cl)ccc1Cl	-42	84	66	·
CCOC(=O)C1=C(C)N=c2s/c(=C\c3cc(Br)ccc3O)c(=O)n2C1c1ccc2c(c1)OCO2 (stereo not given)	-19	·	·	98
COC(=O)c1nnn(-c2nonc2N)c1C(=O)OC	-48	92	91	105
CC(C)=CCc1c(O)cc(O)c2c1O[C@H](c1ccccc1)CC2=O	-4	35	43	·
O=C(CSc1nnc(-c2ccco2)n1C1CCCCC1)c1ccc2[nH]c(=O)oc2c1	11	81	76	·
CCN(CC(=O)NC1CCS(=O)(=O)C1)C(=O)C(c1ccccc1)c1ccccc1 (stereo not given)	-15	78	88	·
N#CC1=C(N)N2C(=C(C#N)C13CCN(Cc1ccccc1)CC3)Nc1ccccc12	9	94	94	·
CN(C)c1ccc(/C=C/c2nc(-c3ccccc3O)n(-c3ccccc3)n2)cc1	-30	109	91	108
O=C(NCCC1=CCCCC1)C1CCN(c2ccc(-c3ccccc3)nn2)CC1	-15	·	·	103
CCCN(CCC)CCCNC(=O)Cn1cc2c(n1)-c1c(oc(C(=O)N3CCCC3)c1C)CC2	·	112	93	105

New compounds follow
SMILES	HCMV NEC inh	Sa growth 42C	Sa growth 42C second temp	GIV-Gai inh
CC(C)C1Cc2[nH]c(=O)c(C(=O)O)cc2CO1 (stereo not given)	·	91	87	95
CCN(CC)c1ccc2cc(C(N)=O)c(=Nc3ccccc3)oc2c1	-35	94	83	·
CN1CC=C2C(C(=O)O)=C(N)C(C#N)(C#N)[C@@H](c3ccncc3)[C@@H]2C1	-62	92	93	·
CCOC(=O)c1cc(S(=O)(=O)NCCC(=O)NC2CC2)cn1C	3	·	·	99
Cc1cc2c(cc1S(=O)(=O)N1CCN(C(=O)c3cccc(Cl)c3)CC1)OCC(=O)N2	-22	·	·	112
O=c1[nH]c2ccccc2c(=O)n1CCc1nc(-c2ccccc2)no1	-26&-18	98	89	102&96
CS(=O)(=O)N1CCN(C(=O)CCC(=O)O)CC1	-20	96	100	94
COC(=O)NCC12CC3CC(CC(C3)C1)C2	·	85	83	98
O=C1C(=O)N(C2CCN(C(=O)c3ccccc3F)CC2)CCN1Cc1ccc(F)cc1	1	102	87	102&103
Cc1ccc(S(=O)(=O)CCC(=O)OCN2C(=O)c3ccccc3C2=O)cc1	-23	90	88	·
O=C(O)c1cc(O)c2c(c1)[C@@H]([C@H]1c3cc(C(=O)O)cc(O)c3C(=O)c3c(O[C@H]4O[C@H](CO)[C@@H](O)[C@H](O)[C@H]4O)cccc31)c1cccc(O[C@H]3O[C@H](CO)[C@@H](O)[C@H](O)[C@H]3O)c1C2=O	26	90	71	·
CCOC(=O)C1=C(C)Nc2nnnn2C1c1ccc(N(C)C)cc1 (stereo not given)	-13	·	·	100
O=C(CSc1nnc2[nH]c(=O)cc(-c3ccccc3)n12)Nc1ccc(OC(F)(F)F)cc1	·	115	88	104
O=C(O)CC(SC(=NC1C=CCCC1)N1CCCCC1)C(=O)O (stereo not given)	-18	94	85	·
O=c1nc(N2CCCC2)nc(N2CCCC2)[nH]1	-7	96	88	107
CCCc1nnc2n1N=C(c1ccc(Cl)cc1)CS2	4	·	·	108
C[C@H](NS(=O)(=O)c1ccccc1)C(=O)Nc1nccs1	-16	98	93	·
O=C(Cc1nc2ccccc2[nH]1)c1ccc(F)cc1F	-6	94	90	·
COc1ccc(NC(=O)Cn2cc(C(=O)C3CCCCC3)c3ccccc32)cc1	-3	92	85	103
COc1ccc(NC(=O)C2CCCN(c3ncnc4c3nc3n4CCCCC3)C2)c(OC)c1 (stereo not given)	·	123	93	104
Cc1c(C(=O)NCc2ccc3c(c2)OCO3)oc2ccc3c(c12)C(O)CC1(CCCCC1)O3 (stereo not given)	-34	88	82	103
c1cc(N2CCOCC2)ccc1Nc1nc2nonc2nc1Nc1ccc(N2CCOCC2)cc1	-84	128	74	101
COc1cccc2cc(C(=O)N3CCN=C3c3ccccc3)c(=O)oc12	-66	102	91	102
Cn1c(SCC(=O)Nc2nc3ccccc3s2)ncc(C(=O)Nc2ccccc2)c1=O	·	82	90	96
COC(=O)c1cc(S(=O)(=O)N(C)C2CCCCC2)cn1C	·	77	82	95
NNC(=O)c1ccc2c(=O)n3c(nc2c1)CCC3	-17	102	87	·
CCOC(=O)C1CCN(c2nc3c(S(=O)(=O)c4ccc(C)c(C)c4)nnn3c3ccc(Cl)cc23)CC1	12	98	78	112
O=C(Cn1c(=O)[nH]c2c(-c3ccccc3)c[nH]c2c1=O)NC1CCCCC1	-9	·	·	99
Cc1cc2c(cc1S(=O)(=O)NCc1ccccc1Cl)OCCN2C	·	105	93	97

Arranged by length of the SMILES (falling): part of the list above
SMILES	HCMV NEC inh	Sa growth 42C	Sa growth 42C second temp	GIV-Gai inh
O=C(O)c1cc(O)c2c(c1)[C@@H]([C@H]1c3cc(C(=O)O)cc(O)c3C(=O)c3c(O[C@H]4O[C@H](CO)[C@@H](O)[C@H](O)[C@H]4O)cccc31)c1cccc(O[C@H]3O[C@H](CO)[C@@H](O)[C@H](O)[C@H]3O)c1C2=O	26	90	71	·
CCOC(=O)C1CCN(c2nc3c(S(=O)(=O)c4ccc(C)c(C)c4)nnn3c3ccc(Cl)cc23)CC1	12	98	78	112
COc1ccc(N2C(=O)C(CC(=O)Nc3ccc(Cl)cc3)N(Cc3ccc4c(c3)OCO4)C2=O)cc1 (stereo not given)	-31	104	88	101
CC1=CS/C(=C(/C#N)c2nnc(N3CCOCC3)n2-c2ccccc2)N1c1ccc(OC(F)F)cc1	-31	86	88	·
CN1CC=C2C(C(=O)O)=C(N)C(C#N)(C#N)[C@@H](c3ccncc3)[C@@H]2C1	-62	92	93	·
COc1ccc(OC)c(NC(=O)CSc2nc3c(c(=O)n2Cc2ccccc2)SC(C)C3)c1 (stereo not given)	-24	99	93	105
O=C(O)c1ccc(NC(=O)c2ccc3c(c2)C(=O)N(Cc2ccco2)C3=O)cc1	-49	115	98	96
N#CC1=C(N)N2C(=C(C#N)C13CCN(Cc1ccccc1)CC3)Nc1ccccc12	9	94	94	·
c1cc(N2CCOCC2)ccc1Nc1nc2nonc2nc1Nc1ccc(N2CCOCC2)cc1	-84	128	74	101
Cn1c(SCC(=O)Nc2nc3ccccc3s2)ncc(C(=O)Nc2ccccc2)c1=O	·	82	90	96
CN1CCN(C(c2cccc(Br)c2)c2sc3nc(-c4ccco4)nn3c2O)CC1 (stereo not given)	·	135	92	98
O=C(C[n+]1cccc(/C=N/O)c1)NC12CC3CC(CC(C3)C1)C2	·	104	83	101
O=C(/C=C/C(=O)N1c2ccccc2Sc2ccccc21)c1ccccc1	-7	97	70	·
CCN(CC)c1ccc2cc(C(N)=O)c(=Nc3ccccc3)oc2c1	-35	94	83	·
Cc1cc(-c2csc(-c3ccccc3)n2)c(C)n1-c1nccs1	-41	89	80	·
Cc1cc2c(cc1S(=O)(=O)NCc1ccccc1Cl)OCCN2C	·	105	93	97
Cc1ccc(Nc2nc3nonc3nc2Nc2ccc(O)cc2)cc1C	-4	·	·	100
O=C(Cc1nc2ccccc2[nH]1)c1ccc(F)cc1F	-6	94	90	·
COC(=O)c1ccccc1S(=O)(=O)C(C)(C)C	-2	123	89	·
CCCc1nnc2n1N=C(c1ccc(Cl)cc1)CS2	4	·	·	108
Cc1cc(O)ccc1Sc1ccc(O)cc1C	-7	30*	74*	·

High-throughput results deposited in PubChem by ICCB-Longwood Screening Facility, Harvard Medical School.
